Bioassay records deposited in PubChem BioAssay by National Center for Advancing Translational Sciences (NCATS).
Lassa entry inh = blocks Lassa virus binding to or entry into cells; Lassa virus pseudotype entry inhibition, cell reporter; control for the full effect not named in the record; 300,000 compounds, 1.2% hits; Potency, µM (series often up to 37.9 µM), inactives show at the highest dose activity change, negative = inhibition, most hits filed as inhibitors; AID 540256; active means well fitted inhibition curve with a large enough effect; inconclusive means small, poorly fitted or top-dose-only effect, or effect the other way; inactive means flat fitted curve, though single readings scatter; tested in HEK293 cells; note: % is set by controls: 0 for no effect and ±100 for the full control effect; nearly all actives have a fitted effect of over 50% in size; luciferase read-out
Cruzain noTriton = inhibitors of Trypanosoma cruzi cruzain without detergent. P25779. purified cruzain, Z-FR-AMC fluorescence, no detergent. 200,000 compounds, 2.3% hits. Potency, µM, for inactives: max response, negative = inhibition, usual class: inhibitors;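 note: plate controls were enzyme without inhibitor for no effect and buffer without enzyme for full effect; nearly all actives have a fitted effect of over 40% in size; top concentration of the series not given in the record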
Target sequence (P25779 123-467 limits assumed): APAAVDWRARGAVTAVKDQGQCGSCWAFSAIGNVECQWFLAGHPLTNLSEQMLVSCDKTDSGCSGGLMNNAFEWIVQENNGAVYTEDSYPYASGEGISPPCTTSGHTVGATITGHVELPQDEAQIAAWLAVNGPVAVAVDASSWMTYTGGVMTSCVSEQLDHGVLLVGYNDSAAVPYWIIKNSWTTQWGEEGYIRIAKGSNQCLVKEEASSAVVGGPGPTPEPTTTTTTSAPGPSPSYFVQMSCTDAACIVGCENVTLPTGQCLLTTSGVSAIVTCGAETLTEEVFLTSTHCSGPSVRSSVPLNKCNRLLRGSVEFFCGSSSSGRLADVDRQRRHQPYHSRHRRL
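Detergent-free condition (0.00005% Triton X-100) in acetate buffer pH 5.5 with DTT. 1.5 nM enzyme and compound were pre-mixed 15 min, then 2 uM Z-FR-AMC substrate added; reaction progress from fluorescence change between first and third reads (60 s).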
Cruzain Triton = cruzain (T. cruzi) inhibition with detergent; 200,000 compounds, 0.43% hits; Potency, µM, for the others: max response, negative = inhibition, actives largely listed as inhibitors; purified cruzain, Z-FR-AMC fluorescence, 0.01% Triton; P25779;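 note: plate controls were neutral wells for no effect and buffer without enzyme for full effect; nearly all actives have a fitted effect of over 40% in size; top concentration of the series not given in the record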
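Compounds were screened in titration against cruzain (1.5 nM) with 0.01% Triton X-100 to counter colloidal aggregation. Activity was the AMC fluorescence increase over 60 s after adding 2 uM Z-FR-AMC at pH 5.5.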
MARV entry inh = blocks Marburg virus binding to or entry into cells | Marburg virus pseudotyped entry inhibition, cell reporter; control for the full effect not named in the record; about a third of the inactives were read at about 46 µM | Potency, µM (highest dose often 37.8 µM), inactives show at the top dose activity change, negative = inhibition, hits mostly inhibitors | 300,000 compounds, 1.8% hits | AID 540276; active = well fitted inhibition curve with a large enough effect; inconclusive = small, poorly fitted or top-dose-only effect, or effect the other way; inactive = flat fitted curve, though single readings scatter; tested in HEK293 cells; about a fifth of its hits are not listed in these tables; note: % is set by controls: 0 for no effect and ±100 for the full control effect; luciferase read-out
RE007 growth inh = less growth of the S. pombe RE007 Vpr strain | AID 651644 | S. pombe RE007 Vpr strain, BacTiter-Glo ATP luminescence, 24 h; control for the full effect not named in the record | 360,000 compounds, 0.21% hits | Potency, µM (series often up to 92.2 µM), without a hit: at the top dose activity change, negative = less growth; active = well fitted falling curve with a large enough effect; inconclusive = small, poorly fitted or top-dose-only effect; inactive = no such curve, though single readings can be large or run the other way;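 note: % is set by controls: 0 for no effect and ±100 for the full control effect; nearly all actives have a fitted effect of over 50% in size; the assay follows cell death caused by Vpr and the record does not say whether a fall means rescue or toxicity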
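Fission yeast strain RE007, carrying one chromosomally integrated HIV-1 vpr copy, was seeded at OD 0.01 in PMG+AL medium with 23 nL pinned compound. After 24 h at 30 °C and 99% humidity, viability was read by BacTiter-Glo luminescence.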
StopGo reporter = lowers the luciferase signal of an FMDV 2A StopGo reporter. human cells with a luciferase reporter of 2A StopGo recoding; control for the full effect not named in the record. Potency, µM (doses to about 57.9 µM), for the others: top-dose signal change, negative = less light. 410,000 compounds, 1.2% hits. AID 1159524; active = well fitted falling curve with a large enough effect; inconclusive = small, poorly fitted or top-dose-only effect; inactive = no such curve, though single readings can be large or run the other way; tested in HEK293T cells; note: % is set by controls: 0 for no effect and ±100 for the full control effect; nearly all actives have a fitted effect of over 45% in size; luciferase light after 4 h
NS1 inh = blocks influenza NS1 protein function. Potency, µM (doses to about 46.1 µM), for the others: top-dose activity, positive = more growth. S. cerevisiae slowed by influenza A NS1, growth recovery by OD600. 270,000 compounds, 0.4% hits; active means well fitted rising curve with a large enough effect; inconclusive means small, poorly fitted or top-dose-only effect; inactive means no such curve, though single readings can be large or run the other way; note: nearly all actives have a fitted effect of over 50% in size
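S. cerevisiae expressing influenza A NS1, grown in glucose, washed, then diluted 1:100 into pH 6.0 -URA galactose medium with 23 nl compound. Growth recovery read as OD600; NS1-free strain serves as control.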
SARS PLpro yeast = inhibitors of SARS-CoV papain-like protease in yeast; S. cerevisiae expressing SARS-CoV PLpro, growth rescue; control for the full effect not named in the record; Potency, µM (top dose mostly 32.9 µM), without a hit: at the highest dose activity, positive = growth rescue; 330,000 compounds, 0.19% hits; AID 485353; active means well fitted rising curve with a large enough effect; inconclusive means small, poorly fitted or top-dose-only effect; inactive means no such curve, though single readings can be large or run the other way; note: 0% is about no effect; nearly all actives have a fitted effect of over 55% in size; growth read by luminescence after 48 h
* hit, by the source's call; ? = inconclusive; / = not tested or not shown; & = joins results of further samples; [ ] = remark or other dose. Unless noted, calls come from the whole dose curve; as a rule, active = well fitted curve in the direction sought with a large enough effect; inconclusive = small, poorly fitted or top-dose-only effect, or another doubt; inactive = no such curve, though single readings can be large; an effect the other way counts as inactive or inconclusive. Potency is the fitted concentration of half-maximal effect.

Screens in order – Lassa entry inh | Cruzain noTriton | Cruzain Triton | MARV entry inh | RE007 growth inh | StopGo reporter | NS1 inh | SARS PLpro yeast
Cc1cc(NC(=O)CN2C(=O)C(C)(C)c3ccccc32)ccc1Br
    -34%[46.1 µM] | 1% | -4.6% | / | / | ? | / | /
CCN1CCN(CCCNC(=O)c2ccc(NC(=O)C3=CSCCO3)cc2)CC1
    / | / | / | / | 1% | -11% | -12% | -2%
c1ccc(-c2nnc(CSc3nc4ccccc4[nH]3)o2)cc1
    2% | 13µM* | -25% | 4% | 19% | -15% | -159% | 8%
CCOc1cc(/C=N\n2nnnc2N)ccc1O
    / | / | / | / | -11% | -4% | 1% | 1%
CCN(c1ccccc1)S(=O)(=O)c1ccc(Oc2ccc(-n3ccnc3)cc2)nc1
    ? | -7% | -0.8% | -23% | -8% | ? | -33% | 4%
CCOC(=O)c1c(NC(=O)c2ccco2)sc2c1CCCC2
    16% | -1% | -3.8% | -2% | -7% | 0% | 7% | 5%
CC(=O)Nc1ccc(S(=O)(=O)N(Cc2cc3ccc(C)cc3[nH]c2=O)CC2CCCO2)cc1 (centres undefined)
    / | / | / | / | 6% | -8% | 2% | ?
O=C(CSc1nc(-c2ccc(F)cc2)cc(C(F)(F)F)n1)NCc1ccco1
    3% | ? | -2.7% | -27% | 3% | -18% | -16% | -11%
CN1CCN(C(=O)C23CC4CC(C2)CC(c2ccccc2)(C4)C3)CC1
    ? | / | / | ? | -4% | -29% | -2% | -2%
CSCCC(NC(=O)CCC(=O)OCC(=O)[C@@]1(O)CCC2[C@@H]3CCC4=CC(=O)C=C[C@]4(C)C3[C@@H](O)C[C@@]21C)C(=O)O (some centres undefined)
    ? | / | / | 16%[46.1 µM] | 9% | 4% | 2% | 0%
O=C(CSC1=NS(=O)(=O)c2cc(Cl)ccc2N1)Nc1cccc(F)c1
    -2% | / | / | 24% | 0% | 12% | / | -7%
COc1ccc(N(C)S(=O)(=O)c2ccc3c(c2)CCC(=O)N3)cc1
    -64%[14.3 µM] | 12% | 3.8% | 10% | 20% | -3% | -8% | 7%
CC1=C(C(=O)Nc2ccccc2)C(c2ccc(C)o2)n2ncnc2N1 (centres undefined)
    22% | 6% | 3.9% | 16% | 4% | 0% | -3% | 6%
CCC(=O)N1CCc2cc(Br)cc(S(=O)(=O)N3CCCC(C(=O)N(C)c4ccc(Br)cc4)C3)c21 (centres undefined)
    -22%[46.1 µM] | ? | -4.2% | -11%[46.1 µM] | / | -18% | / | /
Cc1cc(C)cc(OCC(=O)Nc2ccc(Cl)cc2C(=O)c2ccccc2)c1
    -4%[46.1 µM] | -10% | -1.3% | / | / | -11% | / | /

One compound at a time (already shown). Order of values: Lassa entry inh | Cruzain noTriton | Cruzain Triton | MARV entry inh | RE007 growth inh | StopGo reporter | NS1 inh | SARS PLpro yeast
Results for `CCOC(=O)c1c(NC(=O)c2ccco2)sc2c1CCCC2` : 16% | -1% | -3.8% | -2% | -7% | 0% | 7% | 5%
Results for `O=C(CSc1nc(-c2ccc(F)cc2)cc(C(F)(F)F)n1)NCc1ccco1` : 3% | ? | -2.7% | -27% | 3% | -18% | -16% | -11%

Next part:
Screens in order – Lassa entry inh | Cruzain noTriton | Cruzain Triton | MARV entry inh | RE007 growth inh | StopGo reporter | NS1 inh | SARS PLpro yeast
COCCNC(=O)CSc1nc2cc(OC)c(OC)cc2c(=O)n1Cc1ccc(OC)cc1
    -8% | 7% | 2.1% | ? | 0% | -6% | -2% | -11%
COc1ccc(-c2cnc3nc(/N=C/N(C)C)nn3c2/N=C/N(C)C)cc1
    0% | / | / | 21%[46.1 µM] | -2% | -7% | / | 0%
O=C1c2[nH]c(=O)[nH]c(=O)c2CN1Cc1ccccc1
    1% | / | / | ? | -4% | -8% | / | /
Brc1ccc(CN2CCN(c3ccccc3)CC2)o1
    -11% | / | / | 13% | 3% | -10% | -4% | 6%
O=C(CN1C(=O)CCS(=O)(=O)c2ccccc21)Nc1ccccc1F
    12%[46.1 µM] | / | / | 29%[46.1 µM] | -4% | -4% | 1% | 1%
CCCCCc1cc(=O)oc2c(C(CCN3CCN(c4ccccc4)CC3)c3ccc4c(c3)OCO4)c(OC)cc(OC)c12 (centres undefined)
    / | / | / | / | 5% | 46%[activator] | ? | -2%
O=C(Cc1nc2ccccc2s1)c1ccc(O)cc1O
    / | ? | -12% | 1% | / | / | -55% | -8%
CCOc1ccc2nc(NCCNC(=O)c3cc(OC)c(OC)c(OC)c3)c(C#N)cc2c1
    / | / | / | / | -10% | -10% | -5% | 0%
COc1ccc(NC(=O)CN(C)C(=O)C2CC(=O)N(Cc3ccc(C)cc3)C2)cc1 (centres undefined)
    2% | / | / | -3% | -18% | -11% | / | 1%
CCOC(=O)c1sc2ccccc2c1S(=O)(=O)NCc1ccccc1OC
    6%[46.1 µM] | -7% | -7.3% | / | / | 43%[activator] | / | /
O=C(OCc1cc(=O)c(OC(=O)c2ccccc2)co1)c1ccccc1
    1% | / | / | -2% | 18% | 5% | / | /
C/C(=N\Nc1nc2ccc(Cl)cc2o1)c1ccccc1
    2%[46.1 µM] | / | / | ? | -6% | 0% | 8.9µM* | -2%
CC1CN(C(=O)C2CC(=O)N(c3ccc(Cl)cc3)C2)CC(C)O1 (centres undefined)
    2%[46.1 µM] | / | / | -7%[46.1 µM] | 2% | 6% | 4% | 0%
COc1cc(NC(=O)c2nccnc2N)cc(C(=O)Nc2cccc(C(F)(F)F)c2)c1
    / | / | / | / | -7%&8% | -16%&-19% | 3% | 1%
CCC(=O)Oc1cccc(C(=O)Nc2cccc(NC(=O)c3ccco3)c2)c1
    8% | / | / | -2% | 4% | 6% | -2% | -5%
O=c1[nH]c(SCc2ccc(Cl)cc2)nc2ccsc12
    15%[46.1 µM] | / | / | ? | 13% | 11% | / | 0%
Cc1ccc(C(=O)N2CC(=O)Nc3ccc(F)cc3C2c2ccccc2)cc1 (centres undefined)
    ? | / | / | ? | -3% | -16% | 0% | 3%
O=C(CSc1nc(-c2ccc(F)cc2)cc(C(F)(F)F)n1)NCCc1ccccc1
    13%[46.1 µM] | 6% | -4.7% | 26%[46.1 µM] | / | 6% | / | /
c1ccc2c(c1)nc(CN1CCOCC1)n1c3ccccc3nc21
    12% | 1% | -1.0% | 14% | -7% | -19% | -94% | /
CC(=O)Nc1cccc(NC(=O)c2c(-c3ccccc3Cl)noc2C)c1
    -10% | -7% | 2.8% | -16% | 7% | / | -8% | -5%
COc1ccccc1N(CC(O)CN1CCOCC1)S(=O)(=O)c1ccccc1 (centres undefined)
    -3% | / | / | 13%[46.1 µM] | 18% | -7% | -15% | -1%
Cc1cc2cc(C)c3nnc(SCC(=O)NCc4ccco4)n3c2cc1C
    -13% | ? | -10% | ? | 10% | / | -12% | 3%
Cn1nnc2c(NCc3ccccc3)ncnc21
    25%[46.1 µM] | 10% | -0.8% | / | / | -6% | / | /
Cc1cc2cc(CNC(=O)c3cccs3)ccc2n1C
    0% | ? | -1.3% | 22% | -3% | 107%[activator] | ? | 0%
COc1ccc(N(CC(=O)Nc2ccccc2Cl)S(=O)(=O)c2ccc(C)cc2)cc1OC
    / | / | / | / | 0% | -15% | -17% | -2%
CCOC(=O)COc1coc(CN2CCN(c3ccc(F)cc3)CC2)cc1=O
    / | / | / | / | 7% | -1% | 5% | -9%
O=C(CC1Sc2ccccc2NC1=O)NCc1ccc(Cl)cc1 (centres undefined)
    / | / | / | 1%[46.1 µM] | 22% | -2% | / | 4%
CCOc1cc(/C=C2\SC(=N)N(c3nccs3)C2=O)ccc1OCCN1CCOCC1
    ? | ? | -12% | ? | 0% | ? | -15% | -7%
Cc1ccc(C)c(N2CCN(CCCNC(=O)c3cnn(-c4ccccc4)c3C3CCN(C(=O)OC(C)(C)C)CC3)CC2)c1
    ? | -10% | -1.3% | / | / | 0% | / | /
CN1CCN(C(=S)NC(=O)c2ccco2)CC1
    11% | / | / | 3% | 3% | 5% | 3% | 1%
Cc1c(Cl)cccc1NC(=O)Cn1nc(C)n2cccc2c1=O
    / | / | / | / | -6% | ? | -2% | -1%
COCCNC(=S)Nc1ccccn1
    / | / | / | / | 3% | 14% | -2% | 0%
COc1ccc(NC(=O)c2ccc(S(=O)(=O)NCc3cccnc3)cc2)cc1
    10% | / | / | 1%[46.1 µM] | 2% | 0% | 2% | 0%
CS(=O)(=O)N1CCN(c2nnc(-c3ccccc3)c3ccccc23)CC1
    -30% | -1% | 4.6% | ? | 31% | -28% | -2% | -1%
COc1ccc(C(=O)Nc2cnccn2)cc1[N+](=O)[O-]
    / | / | / | / | 13% | -4% | 1% | -10%
Cc1cc(NS(=O)(=O)c2ccc(NC(=O)CSc3nc4sc(C(=O)O)c(C)c4c(=O)[nH]3)cc2)no1
    0% | / | / | 7%[14.2 µM] | 3% | -4% | / | 0%
CC(C)c1ccc(CNc2nnnn2C)cc1
    / | / | / | / | 20% | 28% | -4% | 0%
Cc1ccc(C)c(NC(=S)N(CCc2nc3cc(C)c(C)cc3[nH]2)Cc2cccnc2)c1
    -20% | 0% | 6.3% | -20% | -17% | / | 8% | 4%
COc1ccc(N2CS(=O)CC2=O)cc1 (centres undefined)
    / | / | / | / | -5% | -1% | 7% | 2%
O=C(Nc1ccccc1)Nc1ccc2ocnc2c1
    ? | / | / | -10%[46.1 µM] | 6% | 47%[activator] | / | -6%
Cc1cc(NC(=O)CSc2ccccc2)no1
    16% | 5% | 2.3% | ? | 6% | 33%[activator] | ? | -4%
